Source: PubChem
CapD inh: CapD enzyme inhibition. purified CapD enzyme, fluorescence intensity read-out; hits give low values; some hits fall short of the stated cut. z-score (test concentration not listed). 0.23% of 140,000 active. AID 492967;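 active means z-score under -4 in either of two replicates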;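 further: stock transfer was 100 nL into about 40 µL; score is relative to mean and spread of the plate; one replicate is shown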
AID504770: growth inhibitors of E. coli YBA685 in a screen for V. cholerae RctB (chromosome II replication) inhibitors | E. coli YBA685 rctB-dependent plasmid, OD600 growth, 3 h; hits give low values | z-score (concentration not given with the values) | 0.27% of 130,000 active | AID 504770;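 active means z-score under -2 on both plates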;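 further: wells of about 30 µL received 100 nL stock; score is relative to mean and SD of the test wells; the first replicate is given; strong numbers were not always called active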
* hit, by the source's call; i = inactive; . = not tested or not shown. No enrichment for hits, and some 0.39% of all compounds hit somewhere here.

Fields: CapD inh, AID504770
O=C(CNc1c2ccccc2nc2ccccc12)NC(Cc1c[nH]c2ccccc12)C(=O)O (stereo not given)
    10, .
CC(C)n1c(NCc2ccc(N(C)C)cc2)nc2ccccc21
    -0.1, 2.1
FC(F)(F)c1cnc(N2CCc3ccccc3C2)c(Cl)c1
    ., 0.5
CCn1c(-c2ccccc2)c(C(=O)Cn2cc(C)sc2=N)c2ccccc21
    ., -2.25
Cc1nc(SC(C(=O)c2ccccc2)c2ccccc2)nc2ccccc12 (stereo not given)
    -0.095, 1.4
NC(=S)NC1CCCC1
    ., 0.35
Cc1cccc(C)c1NC(=O)CO/N=C/c1ccccc1O
    ., 0.75
COC(=O)Cn1ncc(Cl)c(Cl)c1=O
    ., 0.4
O=C(Oc1ccc(OC(F)(F)F)cc1)C1=Cc2cc(Cl)ccc2OC1
    0.45, -0.2
COc1ccc(C(=O)NNC(=O)OCC(C)C2CCCCC2)cc1 (stereo not given)
    -0.6, .
CC(=O)NC(=O)c1cc2cc(Cl)ccc2oc1=Nc1cccc(C(F)(F)F)c1
    0.255, .
CS(=O)(=O)c1cnc(N)nc1-c1ccc(C(F)(F)F)cc1
    -0.135, .
CN1CCC(N(C2CC2)S(=O)(=O)c2ccc(NC(=O)c3ccc(C(F)(F)F)cc3)cc2)CC1
    -0.135, .
COc1ccc(C2c3c(-c4ccccc4)n[nH]c3C(=O)N2c2ccc(Cl)cc2)cc1 (stereo not given)
    -0.305, .
Cc1cc(C)c2nc(-c3ccco3)cc(C(=O)O)c2c1
    ., -0.25
COc1ccc(C2(CNCC(N)=O)CCCC2)cc1OC
    0.22, .
O=c1[nH]c(CN2CCN(S(=O)(=O)c3ccc4c(c3)OCCO4)CC2)nc2ccsc12
    ., 0.9
COc1ccc(C2Nc3ccccc3-c3nnc(SC)nc3O2)cc1Br (stereo not given)
    -0.65, .
O=S(=O)(/C=C/c1ccccc1)N1CCN(c2ccc(F)cc2)CC1
    -1.12, 2.1
O=C(O)CC(O)c1nc2ccccc2[nH]1 (stereo not given)
    0.32, 0.05
CCOc1ccc(OCCSc2nc3ccccc3n2CCO)cc1
    -0.195, .
Clc1ccc(COn2c(-c3ccccc3Cl)nc3ccccc32)cc1
    0.295, .
CCCC(CCC)C(C(=O)O)C(=O)OCC (stereo not given)
    0.675, .
CCOCCn1ccc2c(OCC(=O)NC3CCCCC3)cccc2c1=O
    ., -0.9
O=S(=O)(c1ccc(Cl)cc1)N(Cc1ccc(Cl)cc1)Cc1cccnc1
    -0.135, -0.4
CN1CCN(CCNc2nc(-c3ccccc3F)no2)CC1
    -0.055, -0.5
O=C(O)CCCN1C(=O)c2ccccc2Sc2ncccc21
    0.49, -0.85
CCCCN(C)C(=O)c1coc(=O)c2ccccc12
    0.3, -0.15
CC1(C)CC(=O)C=C(NCC(=O)O)C1
    i, 0
CC(C)=CCS(=O)(=O)c1ccccc1
    -0.515, 2.1
CC1=C(C)[N+](=O)C2(O)CCCCC2(C)N1[O-] (stereo not given)
    -2.98, -0.45
CC(C)n1ncc2c(C(=O)Nc3cccc4ncccc34)cc(C3CC3)nc21
    ., -0.45
COc1ccc(-n2nnnc2-c2cnc(N)nc2C(F)(F)F)cc1
    1.44, -0.55
O=C(CSc1nc2ccccc2o1)NCC(F)(F)F
    0.43, -0.65
Cc1noc(C)c1CSCC(=O)N1CCSC1=Nc1cccc(Cl)c1C
    ., 0.15
OC1=CONN1c1cccc2ncccc12
    -0.22, 0.45
COC(=O)C(Cc1cc(Cl)ccc1Cl)SC#N (stereo not given)
    0.14, 0.55
CC(=O)c1cccn1S(=O)(=O)c1ccccc1
    0.09, .
Cc1ccc(SCC(=O)Nc2nc(-c3cccs3)cs2)cc1
    ., 0.15
CCNc1nc(Sc2ccc(Cl)c(Cl)c2)cc(C(F)(F)F)n1
    0.145, .
NC(=O)CCc1c[nH]c2ccccc12
    ., -0.2
CC(=O)N1CCN(C(=O)c2cc(C)oc2C)CC1
    ., -0.5
COc1ccc2[nH]c(C)c(CCN3CCC(=O)C(C)C3C)c2c1 (stereo not given)
    -0.03, 2.15
CC(OC(=O)c1ccc(NS(=O)(=O)c2cccs2)cc1)c1nc2scc(-c3cccs3)c2c(=O)[nH]1 (stereo not given)
    ., 1.55
Cc1ccc(-c2cc(=O)[nH]c3ccccc23)cc1
    7.25, 0.1
COc1ccccc1C1CCN(Cc2ccc(Cl)cc2Cl)CC1
    -0.525, .
CC(C(=O)OCc1ccc(F)cc1)N1C(=O)c2ccccc2C1=O (stereo not given)
    ., 0.4
CN1CCC2=C(C1)C(=O)NC1(CCCCC1)N2
    0.045, -0.05
O=C1CC(c2ccc(C3=NN(c4ccccc4)C(=O)C3)cc2)=NN1c1ccccc1
    5.13, .
CC(C)NC(=O)Cn1ncc2c3ccccc3n(Cc3ccccc3)c2c1=O
    0.94, -0.4
O=c1oc2cc(O)ccc2cc1-c1ccc(F)cc1
    91.3, -1.9
Cc1ccc(Sc2ccc(C(=O)O)cc2NC=O)cc1
    0.105, -0.35
O=C(O)c1cc(O)c(O)c(O)c1
    ., -0.35
O=c1c2cc3c(=O)n(CCO)c(=O)c3cc2c(=O)n1CCO
    -0.23, .
CC(C)CCOC(=O)c1ccc2c3c(onc13)-c1ccccc1C2=O
    -0.61, .
O=S(=O)(c1cccc(C(F)(F)F)c1)N1CCc2ccccc2C1
    0.585, .
COC(=O)N1CC2CC(C1)c1cccc(=O)n1C2 (stereo not given)
    -0.245, 0.75
Cc1ccc(N(CC(=O)Nc2ccc(F)cc2)S(=O)(=O)N2CCCC2)cc1
    0.53, -0.6
CCOC(=O)C1=CN(C2CCCC2)C=C(C(=O)OCC)C1c1ccccc1C
    41.8, -1.05
O=c1[nH]c(-c2cc(Br)cs2)nc2ccccc12
    2.23, -0.3

Next section
SMILES,CapD inh,AID504770
N#CC(c1ccc(Sc2ccccc2)nn1)c1ccc(Cl)cc1Cl (stereo not given),-0.24,.
COC(=O)C(C)Sc1nc2ccsc2c(=O)n1Cc1ccccc1 (stereo not given),.,0.9
CCOc1ccc(-c2cc3cc(OC)c(OC)cc3c(Cc3ccccc3)n2)cc1,3.51,.
Cc1[nH]n(-c2ccccc2)c(=O)c1C(c1cc(Br)cc(Cl)c1O)c1c(C)[nH]n(-c2ccccc2)c1=O,-0.93,.
O=C1C(C=NCc2cccs2)=C(O)c2ccccc21,-0.1,0.65
CCOC(=O)C1CCN(C(=O)c2ccccc2N(C)S(C)(=O)=O)CC1,.,2.1
Cn1/c(=N/NC(=O)CCc2ccc(S(=O)(=O)N3CCOCC3)cc2)sc2ccccc21,.,0.6
N#CC1(Nc2cccc(C(F)(F)F)c2)CCCCCC1,1.36,-0.85
Cc1cc(N2CCN(C)CC2)nc(SCC2COc3ccccc3O2)n1 (stereo not given),.,-0.6
COc1ccc(C2CC(=O)C3=C(C2)NC(C)=C(C(=O)OC(C)C)C3c2cc3c(cc2Cl)OCO3)cc1 (stereo not given),2.1,.
Cc1cc(NS(=O)(=O)c2ccc(F)c(Cl)c2)no1,0.855,0.25
Cc1cc2nnc(SCC(=O)Nc3cc(Cl)ccc3Cl)n2c2ccccc12,0.15,.
O=C(Nc1ncccn1)c1cc(-c2ccc(F)cc2)nc2ccccc12,4.66,0.2
CCN(CC)c1ncc2c(NCc3ccccc3)nc(SCc3ccccc3)nc2n1,17.2,0.5
CCn1c2ccccc2c2cc(C3C(C(=O)OC)=C(C)NC4=C3C(=O)CC(c3ccco3)C4)ccc21 (stereo not given),14.5,3.55
Cc1[nH]c(=O)[nH]c(=O)c1CSCC(=O)OCC(=O)Nc1nc2c(s1)C(=O)CC(C)(C)C2,0.48,.
CNC(=O)/C=C1\NC(C)(C)Cc2c1ccc1ccccc21,0.57,-0.2
CSc1nc2ccc3nc(N)sc3c2s1,0.36,0.95
O=c1oc(-c2cccc(Cl)c2)nc2ccccc12,2.11,0.8
COc1ccc(/C=C2\Oc3ccc4c(C)cc(=O)oc4c3C2=O)cc1Br,-0.175,.
O=C(Nc1ccc2nc(SCC(=O)N3CCOCC3)sc2c1)c1ccc(Cl)cc1Cl,0.045,-0.85
COc1ccc(CCNC(=O)CN2CCOc3ccccc32)cc1OC,-0.08,1
O=C(COC(=O)Cn1cnc2ccccc21)Nc1c(F)cccc1F,-0.215,-0.5
FC12CC3CC(F)(CC(C1)C3=C(C(F)(F)F)C(F)(F)F)C2,.,-0.1
O=S1(=O)c2cccc3cccc(c23)N1Cc1nc2ccccc2s1,.,0.9
Cc1nc(C(=O)N/N=C/c2c(C)nn(-c3ccccc3)c2C)cs1,-0.945,.
CCN(Cc1ccccc1)c1ccc(/C=N/n2cnnc2)cc1,94.6,0.05
O=C1CCCN1C(=O)CSc1nnnn1-c1ccccc1,.,0.1
CC(OC(=O)c1cccnc1SC(C)C(=O)NC1(C#N)CCCCC1)C(=O)NC1(C#N)CCCCC1 (stereo not given),.,0.15
CC(C)(C)c1nnc(NC(=O)CS(=O)(=O)Cc2ccccc2)s1,.,0.05

Entries listed so far that contain a thiophene ring, fused or not, in the order listed:
SMILES,CapD inh,AID504770
O=c1[nH]c(CN2CCN(S(=O)(=O)c3ccc4c(c3)OCCO4)CC2)nc2ccsc12,.,0.9
Cc1ccc(SCC(=O)Nc2nc(-c3cccs3)cs2)cc1,.,0.15
CC(OC(=O)c1ccc(NS(=O)(=O)c2cccs2)cc1)c1nc2scc(-c3cccs3)c2c(=O)[nH]1 (stereo not given),.,1.55
O=c1[nH]c(-c2cc(Br)cs2)nc2ccccc12,2.23,-0.3
COC(=O)C(C)Sc1nc2ccsc2c(=O)n1Cc1ccccc1 (stereo not given),.,0.9
O=C1C(C=NCc2cccs2)=C(O)c2ccccc21,-0.1,0.65

Copied from the list.
AID504770 result of CC(OC(=O)c1cccnc1SC(C)C(=O)NC1(C#N)CCCCC1)C(=O)NC1(C#N)CCCCC1 (stereo not given) stands at 0.15
AID504770 result of CCN(Cc1ccccc1)c1ccc(/C=N/n2cnnc2)cc1 stands at 0.05

(further entries)
SMILES,CapD inh,AID504770
CC1=NC(C)(C)Cc2ccccc21,.,-0.65
N#CC1CN(CCc2ccccc2)CN(CCc2ccccc2)C1,0.37,-0.4
CC(C)OC(=O)CN1CCN(C2c3ccccc3-c3ccccc32)CC1,.,-0.35
Cc1nnsc1-c1onc(C)c1C(=O)O/N=C/c1ccc(Cl)cc1,0.935,-0.2
O=C(Cc1ccccc1)Nc1ccc(NC(=O)c2cccs2)cc1,-0.295,0.4
CC(C)CN(CC(C)C)S(=O)(=O)N1CCC(C(=O)NCc2cccs2)CC1,-0.705,-0.95
O=C(c1cnn(C(=O)CN2c3cccc4cccc(c34)S2(=O)=O)c1)c1ccccc1O,.,-0.25
CCC(C)C(NCc1cccc(C)c1)C(=O)O (stereo not given),-0.25,-0.5
Cn1cccc1Cc1nnc(SCC(=O)N2CCCc3ccccc32)n1-c1ccc(F)cc1,-0.88,-2.95
COC(=O)c1c(C)cc(O)c(C)c1O,-0.55,-0.3
COc1ccc(CN(CCC(c2ccccc2)c2ccco2)C(C)=O)cc1 (stereo not given),-0.145,-0.05
CN(C)c1ccc(/C=N/NC(=O)/C=C/c2ccc3c(c2)OCO3)c2ccccc12,-1.25,.
Cn1c(SCC(=O)c2ccccc2)nnc1-c1cccs1,0.1,0
COc1ccc(Cc2nc3c4c(-c5ccccc5)c(-c5ccccc5)oc4ncn3n2)cc1OC,10.5,.
c1ccc(Nc2nc3ccccc3n3nnnc23)cc1,0.23,-0.55
CCOc1ccc(-c2nn(-c3ccccc3)cc2C2C(C(=O)OC)=C(C)NC(C)=C2C(=O)OC)cc1[N+](=O)[O-],-0.715,.
CCOC(=O)c1c(Sc2ccccc2)cnn1C(=O)Nc1cccc(Cl)c1,9.69,-1.1
O=C1NC(=O)C(=C2CCCCC2)S1,.,0.15
CCc1ccccc1NC(=O)CSc1nc2c(c(=O)n(C)c(=O)n2C)n1C,0.5,-0.2
C=CCSc1nnc2c(n1)OC1(CCCC1)Nc1ccccc1-2,-0.695,-0.3
CC(C)c1nc2ccccc2n1CCOc1ccccc1,.,-0.1
Cc1cc(C)c(COc2ccc3c(c2C)OC(C)(C)CC3=O)c(C)c1,0.655,-0.3
c1cncc(-c2nc(NCCN3CCOCC3)c3ccccc3n2)c1,-0.07,-0.6
CCOc1ccccc1C(=O)N(CC#N)CC#N,-0.1,-0.05
CC1(C)Oc2[nH]c(=O)[nH]c(=O)c2C2c3ccccc3OCC21 (stereo not given),.,0.35
O=C(CSc1n[nH]c(-c2ccccc2)n1)c1ccc(Cl)cc1,-0.82,-0.85
CCCCSc1nnc2c(n1)OC(c1ccc(OCC(=O)O)cc1)Nc1ccccc1-2 (stereo not given),-0.27,.
Cc1nc(N2CCN(c3ccc([N+](=O)[O-])cc3)CC2)c2c3c(sc2n1)CCC3,-0.24,.
NC(=O)CSc1nc2c(sc3ccccc32)c(=O)n1CCc1ccccc1,0.35,0.3
N#CCC1c2ccccc2CCN1C(=O)Nc1ccc(Cl)cc1Cl (stereo not given),-0.12,.
Cc1cc(C)c(NC(=O)CC#N)c(C)c1,.,0.45
Cn1nc(-c2ccc(OCC(=O)N3CCN(Cc4ccccc4)CC3)cc2)c2ccccc2c1=O,-0.545,1.55
Cc1ccc(C2N[C@@H](C(=O)O)C(C)(C)S2)cc1 (stereo not given in full),1.19,0.35
CCC(=O)Oc1ccc2[nH]c(C)c(C)c2c1,6.36,0.4
COc1cc(C2NC(=O)NC(c3ccc(O)c(OC)c3)C23C(=O)NC(=O)NC3=O)ccc1O (stereo not given),-0.68,-0.6
O=C(O)C1Cc2ccccc2CN1C(=O)c1ccccc1 (stereo not given),0.005,0.9
NC(=O)CSc1ccc(-c2ccccc2)nn1,.,-0.05
